Screening data as filed in PubChem.
HCMV UL50-53 inh: inhibitors of HCMV UL50-UL53 nuclear egress complex interaction; HTRF UL50-UL53 interaction, normalized percent inhibition; inhibition, % (test concentration not listed); 190,000 tested, 0.15% active;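 active means both replicates at 50% or more, plus weaker picks with an unusually low signal ratio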;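 further: stock transfer was 100 nL into about 20 µL; 0% = negative control wells and 100% = wells with untagged competitor protein; inactives centre near -12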
GIV-Gai inh: blocks GIV peptide binding to rat Galpha-i3; P08753; 210,000 tested, 0.42% active; percent of control (FP), % (no concentration beside the values); Galpha-i3/FITC-GIV peptide fluorescence polarization, 90 min; hits give low values; scaled: aluminum fluoride 0%, vehicle 100%; AID 1224905;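 active means replicate mean at 85% of control or lower, very high polarization wells dropped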;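 further: wells of about 15 µL received 100 nL stock; the first replicate is given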
Target sequence (P08753 whole entry, looked up): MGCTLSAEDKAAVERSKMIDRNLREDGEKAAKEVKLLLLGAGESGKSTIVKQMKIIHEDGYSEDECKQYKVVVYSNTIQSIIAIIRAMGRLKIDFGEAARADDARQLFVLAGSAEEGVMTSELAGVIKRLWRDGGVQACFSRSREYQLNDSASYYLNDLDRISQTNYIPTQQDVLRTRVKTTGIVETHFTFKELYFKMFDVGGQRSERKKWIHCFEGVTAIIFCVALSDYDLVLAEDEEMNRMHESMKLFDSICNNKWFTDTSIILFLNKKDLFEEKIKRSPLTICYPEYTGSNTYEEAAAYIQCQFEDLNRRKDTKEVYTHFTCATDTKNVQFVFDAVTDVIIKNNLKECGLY
Sa growth inh: S. aureus growth inhibition; relative growth, % (concentration not given with the values); S. aureus RN4220 growth, OD600, 20 h, 42 °C; hits give low values; 170,000 tested, 0.53% active;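 active means growth at 42 °C up to 50% and 20 or more points under that at 30 °C, or under 10% at both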;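 further: 300 nL library stock went into each well; scaled to the means of positive and negative controls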
Sa growth inh second temp: also measured in Sa growth inh; calls as there; relative growth, %; measured here: growth at 30 °C;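 optical density after 20 h as mean of two plates; 100% = untreated growth and lower means inhibition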
An asterisk follows results filed as active; . = not tested or not shown; & = joins results of further samples.

entry | molecule | HCMV UL50-53 inh | GIV-Gai inh
1 | Cc1cccc(N2CC(C(=O)Nc3ccc4c(c3)OCO4)CC2=O)c1C (configuration not stated) | -28 | 102
2 | O=C(CCCN1C(=O)c2cccnc2Sc2ccccc21)N1CCN(c2ccccn2)CC1 | -14 | 98
3 | Cc1ccccc1-c1noc(CCn2c(=O)[nH]c3ccccc3c2=O)n1 | -17 | 99
4 | CN(C)C(=O)c1ccc2c(c1)N(CC(=O)NCc1ccc(F)cc1)C(=O)CS2 | -16 | 114
5 | C/C(CC(=O)c1ccccc1)=N\n1cnnc1 | -10 | .
6 | O=C(Cn1nc(-c2ccccc2)ccc1=O)N1CCOCC1 | . | 103
7 | COc1ccc(S(=O)(=O)Nc2cc3[nH]c(=O)[nH]c3cc2Cl)cc1OC | -37 | 103
8 | CC(=O)N(CCN(C)C)c1nc2cc(C)cc(C)c2s1 | . | 101
9 | FC(F)(F)c1cc(-c2noc(-c3ccno3)n2)cc(C(F)(F)F)c1 | 3 | 108
10 | CCOC(=O)C1CCN(Cn2c(O)c(N=NC(=S)Nc3cccc(OC)c3)c3ccccc32)CC1 | -60 | 102

entry | Sa growth inh | Sa growth inh second temp
1 | 83 | 83
2 | . | .
3 | . | .
4 | . | .
5 | 77 | 102
6 | 97 | 85
7 | . | .
8 | 116 | 82
9 | 109 | 104
10 | 112 | 70

Further results:
entry | molecule | HCMV UL50-53 inh | GIV-Gai inh
11 | COc1cc2ncnc(NCc3cccc4c3OCO4)c2cc1OC | -24 | 103
12 | O=C(Nc1ccc(Br)cc1)c1cccc(C(=O)Nc2ccc(Br)cc2)c1 | -60 | 109
13 | CCOc1ccc(N=C2SC(C(=O)Nc3ccc(C(=O)OC)cc3)CC(=O)N2Cc2ccc3c(c2)OCO3)cc1 (configuration not stated) | -8 | 106
14 | COc1ccccc1-c1nc2n(n1)C(c1ccccc1Cl)C(C(=O)Nc1cccnc1)=C(C)N2 (configuration not stated) | -35 | 99
15 | O=c1ccc(=O)n(CN(c2ccccc2)c2ccccc2)[nH]1 | -19 | .
16 | CN(C)S(=O)(=O)c1ccc(C(=O)Nc2nc3c(s2)CCc2ccccc2-3)cc1 | . | 102
17 | COCCn1nnnc1C(c1ccncc1)N1CCCC1 (configuration not stated) | -76 | 99
18 | Cc1cc(C)nc(NS(=O)(=O)c2ccc(NC(=O)CC3CCCC3)cc2)n1 | -11 | .
19 | CCOc1ccc(-n2c(=S)sc3c(=O)[nH]c(SCC(=O)NCc4ccccc4)nc32)cc1 | -32 | 102
20 | COc1ccc(C2=N/C(=C\c3ccc4c(c3)OCO4)C(=O)O2)cc1 | -32 | 136

entry | Sa growth inh | Sa growth inh second temp
11 | 92 | 86
12 | 103 | 90
13 | . | .
14 | 119 | 85
15 | 110 | 92
16 | 105 | 88
17 | 88 | 75
18 | 90 | 94
19 | . | .
20 | 91 | 85

Fetched by compound from above, 4 records:
entry | molecule | HCMV UL50-53 inh | GIV-Gai inh
11 | COc1cc2ncnc(NCc3cccc4c3OCO4)c2cc1OC | -24 | 103
17 | COCCn1nnnc1C(c1ccncc1)N1CCCC1 (configuration not stated) | -76 | 99
14 | COc1ccccc1-c1nc2n(n1)C(c1ccccc1Cl)C(C(=O)Nc1cccnc1)=C(C)N2 (configuration not stated) | -35 | 99
18 | Cc1cc(C)nc(NS(=O)(=O)c2ccc(NC(=O)CC3CCCC3)cc2)n1 | -11 | .

entry | Sa growth inh | Sa growth inh second temp
11 | 92 | 86
17 | 88 | 75
14 | 119 | 85
18 | 90 | 94

Further entries:
entry | molecule | HCMV UL50-53 inh | GIV-Gai inh
21 | C=CCn1c(C)c(C=C(C#N)C#N)c2ccccc21 | -57 | 104
22 | Cn1c(SCc2cc(F)cc(F)c2)nnc1-c1sc2ncccc2c1N | -28 | 102
23 | O=C(CCN1C(=O)C2C3C=CC(C3)C2C1=O)Nc1ccccc1 (configuration not stated) | . | 96
24 | O=S(=O)(c1ccccc1)c1nnn2c1nc(N1CCc3ccccc31)c1sccc12 | 9 | 97
25 | C=CCn1c(=S)sc2c(=O)n(Cc3ccc(Cl)cc3)cnc21 | -9 | .
26 | Cn1c(CCc2ccc(NC(=O)CN3C(=O)COc4ccccc43)cc2)nc2ccccc21 | -6 | 111
27 | COc1ccc(CNC(=O)NC(=O)c2ccccc2)cc1 | -7 | 105
28 | O=C(CCc1cccs1)NC1=NCCS1 | -17 | .
29 | COC(=O)c1c(C)oc(C)c1S(=O)(=O)N(C)C | 2 | 104
30 | Cc1nn(CCCC(=O)NC2CCCC(C)C2C)c(=O)c2nccn12 (configuration not stated) | -7 | 98

entry | Sa growth inh | Sa growth inh second temp
21 | 116 | 79
22 | . | .
23 | 105 | 82
24 | 109 | 105
25 | 91 | 75
26 | . | .
27 | 106 | 103
28 | 99 | 91
29 | 101 | 103
30 | 97 | 90

Next compounds follow.
entry | molecule | HCMV UL50-53 inh | GIV-Gai inh
31 | COC(=O)C(Cc1c[nH]c2ccccc12)NS(=O)(=O)c1cccc2nonc12 (configuration not stated) | -110 | 104
32 | COc1ccc(NC(=O)c2oc3ccc(S(=O)(=O)N(C)C4CCCCC4)cc3c2C)cc1Cl | . | 99
33 | CC(C)Oc1ccc(CNC(=O)c2cc3ccccn3n2)cc1 | . | 100
34 | CC(=O)Nc1ccc(S(=O)(=O)N(Cc2ccccc2)Cc2ccccc2)cc1 | -27 | 104
35 | NC(=O)/C(=C/c1ccc2c(c1)OCO2)NC(=O)c1ccc(Br)cc1 | . | 106
36 | NC(=O)c1c(C(F)(F)F)cc(-c2ccccc2)nc1NCCO | . | 97
37 | Cc1ccccc1NC(=S)NCc1cccn1C | -22 | 104
38 | CCOC(=O)c1c(C)[nH]c(CN(Cc2ccccc2)C(=O)Nc2ccccc2)c1C | -10 | 101
39 | O=C(c1cc(C(F)(F)F)cc(C(F)(F)F)c1)N1CCN(Cc2ccc3c(c2)OCO3)CC1 | -6 | 118
40 | COc1cc(Cl)c(C)cc1NC(=O)COC(=O)c1n[nH]c2ccccc12 | -20 | .

entry | Sa growth inh | Sa growth inh second temp
31 | 105 | 84
32 | 124 | 89
33 | 94 | 90
34 | 94 | 82
35 | 77 | 66
36 | 99 | 101
37 | 94 | 90
38 | . | .
39 | 102 | 97
40 | 69 | 100

In a second layout: results already given.
35: NC(=O)/C(=C/c1ccc2c(c1)OCO2)NC(=O)c1ccc(Br)cc1
29: COC(=O)c1c(C)oc(C)c1S(=O)(=O)N(C)C

Compound | 35 | 29
HCMV UL50-53 inh | . | 2
GIV-Gai inh | 106 | 104
Sa growth inh | 77 | 101
Sa growth inh second temp | 66 | 103

Next section:
entry | molecule | HCMV UL50-53 inh | GIV-Gai inh
41 | CCOC(=O)N1CCN(C(=O)CN(c2cccc(Cl)c2)S(=O)(=O)c2ccccc2)CC1 | -11 | 102
42 | COCCN1Cc2cccc(C(=O)NCc3cccnc3)c2C1=O | -21 | 100
43 | Cc1oc2ncn(Cc3cccc(Cl)c3)c(=O)c2c1C | -22 | 104
44 | O=C(O)c1ccc(N2C(=O)C3C4c5ccccc5C(CO)(c5ccccc54)C3C2=O)cc1 (configuration not stated) | -2 | 103
45 | CC(C)N(CC(N)=O)Cc1ccc(-c2ccccc2)cc1 | -4 | .
46 | NCC(c1ccccc1)N1CCOCC1 (configuration not stated) | 1 | .
47 | CC(C)(C)C(CO)N=Cc1cccc(C=NC(CO)C(C)(C)C)n1 (configuration not stated) | 28 | 110
48 | CCCOc1ccc2oc(=O)c3c(c2c1)CCCN3C(=O)CN(C)c1ccccc1 | 5 | 104
49 | COCC(C)Nc1nc(-c2ccccc2F)cs1 (configuration not stated) | -6 | .
50 | COc1ccc(OC)c(S(=O)(=O)NCC(c2ccc(F)cc2)N2CCN(C)CC2)c1 (configuration not stated) | -37 | 100

entry | Sa growth inh | Sa growth inh second temp
41 | 109 | 84
42 | 94 | 86
43 | . | .
44 | 90 | 93
45 | 97 | 95
46 | 125 | 94
47 | 103 | 96
48 | 117 | 96
49 | 89 | 92
50 | 92 | 87

(continued)
entry | molecule | HCMV UL50-53 inh | GIV-Gai inh
51 | CCOc1ccc(C(=O)NC(Cc2ccc(OC)cc2)Cc2ccc3c(c2)OCO3)cc1 (configuration not stated) | -23 | 105
52 | CCN(CC(=O)Nc1ccc(OC)cc1)CC(=O)Nc1ccc(C(N)=O)cc1 | -11 | .
53 | CC(C)n1c(NC(=O)Nc2ccccc2)c2ccccc2nc1=O | -25 | 101
54 | Cc1ccccc1CC(=O)N1CCCC(c2nc3c(nnn3Cc3ccc(F)cc3)c(=O)[nH]2)C1 (configuration not stated) | 2 | 105
55 | Cc1c(Cl)cccc1NC(=O)NCc1cccn1Cc1ccccc1 | -25 | 94
56 | CCOC(=O)c1cccc(NC(=O)c2cc(CN3CCCC3)on2)c1 | . | 105
57 | C/C(N)=C(/C#N)C(=O)Cn1cc(S(=O)(=O)N2CCCC2)ccc1=O | -29 | .
58 | N#Cc1cccnc1N1CCN(C(=O)c2ccccc2)CC1 | -6 | 110
59 | CCOC(=O)C1=C(C)Nc2ccccc2N=C1NC(=O)Cc1coc2cc(C)c(C)cc12 | -5 | .
60 | CCC(Sc1nc(O)cc(=O)[nH]1)C(=O)Nc1nnc(C(C)C)s1 (configuration not stated) | 0 | 105

entry | Sa growth inh | Sa growth inh second temp
51 | . | .
52 | 77 | 89
53 | 91 | 84
54 | . | .
55 | . | .
56 | 123 | 84
57 | 73 | 97
58 | 116 | 86
59 | 75 | 83
60 | 67 | 93

Structures above containing a furan ring, fused or not (four):
entry | molecule | HCMV UL50-53 inh | GIV-Gai inh
29 | COC(=O)c1c(C)oc(C)c1S(=O)(=O)N(C)C | 2 | 104
32 | COc1ccc(NC(=O)c2oc3ccc(S(=O)(=O)N(C)C4CCCCC4)cc3c2C)cc1Cl | . | 99
43 | Cc1oc2ncn(Cc3cccc(Cl)c3)c(=O)c2c1C | -22 | 104
59 | CCOC(=O)C1=C(C)Nc2ccccc2N=C1NC(=O)Cc1coc2cc(C)c(C)cc12 | -5 | .

entry | Sa growth inh | Sa growth inh second temp
29 | 101 | 103
32 | 124 | 89
43 | . | .
59 | 75 | 83

Next structures.
entry | molecule | HCMV UL50-53 inh | GIV-Gai inh
61 | CC1CN(C(=O)COC(=O)c2ccccc2NS(C)(=O)=O)CC(C)O1 (configuration not stated) | -36 | .
62 | COc1ccc(CC(=O)N(Cc2ccccc2)C(C)C)cc1 | 5 | 111
63 | CC(C)c1ccc(C2C(C#N)=C3N=C(N)c4ccccc4N3C3=C2C(=O)CCC3)cc1 (configuration not stated) | -3 | 116
64 | Nc1nn2c([n+]1N)N=C(c1ccccc1)C2 | 10 | .
65 | CC(C)c1ccc(CNC(=O)c2ccc(N3CCCC3)c(NC(=O)NCC3CCCO3)c2)cc1 (configuration not stated) | 4 | 108
66 | COc1ccc2nc(SCC(=O)N3CCCCC3)c(C#N)cc2c1 | -45 | 105
67 | O=C(CC(c1ccccc1)c1ccccc1O)N1CCCCC1 (configuration not stated) | -8 | 102
68 | CCC(C)(C)n1nnnc1C(c1cccnc1)N1CCCC(C)C1 (configuration not stated) | -8 | 107
69 | Cc1cc(OCC(O)CN2CCN(c3cccc(Cl)c3)CC2)ccc1Cl (configuration not stated) | -36 | 103
70 | Cn1c(=O)c(C=Nc2ccccc2)c(O)c2ccccc21 | -9 | 95

entry | Sa growth inh | Sa growth inh second temp
61 | 68 | 89
62 | 92 | 106
63 | 101 | 70
64 | 83 | 101
65 | . | .
66 | 99 | 84
67 | 99 | 82
68 | 104 | 79
69 | 83 | 14
70 | 115 | 91

(cont.)
entry | molecule | HCMV UL50-53 inh | GIV-Gai inh
71 | CCNC(=S)N1CCC(n2cnc3ccccc32)CC1 | -19 | 99
72 | Cc1ccc(NC(=O)C2CCN(c3ccc(N4CCOCC4)nn3)CC2)cc1C | -4&-3 | 104&103
73 | COc1cc2c(cc1OC)C(C(=O)N1CCCC1)C(c1ccccc1F)N(C)C2=O (configuration not stated) | -7 | 117
74 | O=C(Nc1ccc2c(c1)OCCO2)c1ccc2nncn2c1 | -27 | 102
75 | Cn1c(=O)n(C)c2cc(S(=O)(=O)N(Cc3ccccc3)C(=O)c3ccncc3)ccc21 | 14 | 107
76 | Cc1ccc(-n2cnnn2)cc1Cl | 10&-9 | 105&104
77 | Cc1ccc(NC(=O)Cn2c(SCc3cccc(F)c3)nc3ccncc32)c(C)c1 | -16 | 106
78 | CCOC(=O)c1ccccc1NC(=O)CSc1nc2c(c(=O)[nH]1)CCCC2 | -6 | 102
79 | COCCCn1c(=O)c2sccc2n2c(CCCC(=O)Nc3cccc(OC)c3)nnc12 | . | 97
80 | CN1CCN(C(=O)c2cc3c(n(-c4ccccc4)c2=O)CCCC3=O)CC1 | -12 | 96

entry | Sa growth inh | Sa growth inh second temp
71 | 91 | 76
72 | 74 | 94
73 | 92 | 92
74 | . | .
75 | 99 | 90
76 | 102 | 100
77 | 107 | 78
78 | . | .
79 | 83 | 73
80 | 93 | 88

The list goes on.
entry | molecule | HCMV UL50-53 inh | GIV-Gai inh
81 | O=C(CN1C(=O)C2C3C=CC(C3)C2C1=O)Nc1ccccc1 (configuration not stated) | -13 | 106
82 | Cc1ccccc1-n1c(=O)c2ccccc2n2cnnc12 | -17 | .
83 | CCCC(C(=O)O)c1ccccc1 (configuration not stated) | 13 | .
84 | CCn1nnc(NC(=O)c2sc3ccccc3c2Cl)n1 | -38 | .

entry | Sa growth inh | Sa growth inh second temp
81 | 104 | 91
82 | 72 | 85
83 | 111 | 97
84 | 110 | 91
